Source: PubChem BioAssay
Cruzain noTriton – qHTS Assay for Promiscuous and Specific Inhibitors of Cruzain (without detergent); Cruzipain (Trypanosoma cruzi), P25779; purified cruzain, Z-FR-AMC fluorescence, no detergent; Potency, µM, inactives show max response, negative = inhibition, hits mostly inhibitors; 2.3% of 200,000 active; active = well fitted curve in the direction sought with a large enough effect; inconclusive = small, poorly fitted or top-dose-only effect, or another doubt; inactive = no such curve, though single readings can be large; an effect the other way counts as inactive or inconclusive;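 note: plate controls were enzyme without inhibitor for no effect and buffer without enzyme for full effect; nearly all actives have a fitted effect of over 40% in size; top concentration of the series not given in the record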
Target sequence (P25779 123-467 limits assumed): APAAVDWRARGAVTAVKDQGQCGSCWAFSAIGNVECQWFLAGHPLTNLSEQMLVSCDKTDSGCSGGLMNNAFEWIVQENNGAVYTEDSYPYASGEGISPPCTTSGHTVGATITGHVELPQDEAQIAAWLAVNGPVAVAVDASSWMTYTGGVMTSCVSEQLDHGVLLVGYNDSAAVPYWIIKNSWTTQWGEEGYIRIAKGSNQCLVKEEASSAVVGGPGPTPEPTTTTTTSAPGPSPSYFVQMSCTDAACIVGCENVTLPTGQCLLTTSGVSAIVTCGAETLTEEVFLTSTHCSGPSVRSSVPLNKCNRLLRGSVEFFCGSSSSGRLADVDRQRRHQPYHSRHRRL
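Detergent-free condition (0.00005% Triton X-100) in acetate buffer pH 5.5 with DTT. 1.5 nM enzyme and compound were pre-mixed 15 min, then 2 uM Z-FR-AMC substrate added; reaction progress from fluorescence change between first and third reads (60 s).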
NS1 function inh – qHTS Assay for Inhibitors of Influenza NS1 Protein Function. S. cerevisiae slowed by influenza A NS1, growth recovery by OD600. Potency, µM (doses to about 46.1 µM), without a hit: at the highest dose activity, positive = more growth. 0.4% of 270,000 active; note: actives are rising curves; nearly all actives have a fitted effect of over 50% in size
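S. cerevisiae expressing influenza A NS1, grown in glucose, washed, then diluted 1:100 into pH 6.0 -URA galactose medium with 23 nl compound. Growth recovery read as OD600; NS1-free strain serves as control.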
2A StopGo – High Throughput Screening for Foot and Mouth Disease Virus Antivirals; AID 1159524, 2015; 1.2% of 410,000 active; Potency, µM (doses to about 57.9 µM), for inactives: top-dose signal change, negative = less light; human cells with a luciferase reporter of 2A StopGo recoding; control for the full effect not named in the record; active = well fitted falling curve with a large enough effect; inconclusive = small, poorly fitted or top-dose-only effect; inactive = no such curve, though single readings can be large or run the other way; tested in HEK293T cells; note: % is set by controls: 0 for no effect and ±100 for the full control effect; nearly all actives have a fitted effect of over 45% in size; luciferase light after 4 h
Cruzain inh Det – qHTS Assay for Promiscuous and Specific Inhibitors of Cruzain (with detergent). AID 1478, 2009. 0.43% of 200,000 active. Potency, µM, inactives show max response, negative = inhibition, most hits filed as inhibitors. purified cruzain, Z-FR-AMC fluorescence, 0.01% Triton; active = well fitted curve in the direction sought with a large enough effect; inconclusive = small, poorly fitted or top-dose-only effect, or another doubt; inactive = no such curve, though single readings can be large; an effect the other way counts as inactive or inconclusive;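 note: plate controls were neutral wells for no effect and buffer without enzyme for full effect; nearly all actives have a fitted effect of over 40% in size; top concentration of the series not given in the record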
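Cruzain (1.5 nM) preincubated 15 min at RT with compound in 100 mM sodium acetate pH 5.5, 5 mM DTT, 0.01% Triton X-100. Reaction started with 2 uM Z-FR-AMC; AMC fluorescence (ex 360/em 450 nm) change over 60 s gave rate.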
SARS PLpro yeast – qHTS of Yeast-based Assay for SARS-CoV PLP. 0.19% of 330,000 active. Potency, µM (titrated, usually from 32.9 µM), inactives show at the top dose activity, positive = growth rescue. S. cerevisiae expressing SARS-CoV PLpro, growth rescue; control for the full effect not named in the record; note: 0% is about no effect; nearly all actives have a fitted effect of over 55% in size; growth read by luminescence after 48 h
Lassa entry inh – qHTS for Inhibitors of binding or entry into cells for Lassa Virus | Lassa virus pseudotype entry inhibition, cell reporter; control for the full effect not named in the record | Potency, µM (highest dose often 37.9 µM), for the others: top-dose activity change, negative = inhibition, usual class: inhibitors | 1.2% of 300,000 active; active means well fitted inhibition curve with a large enough effect; inconclusive means small, poorly fitted or top-dose-only effect, or effect the other way; inactive means flat fitted curve, though single readings scatter; tested in HEK293 cells; note: % is set by controls: 0 for no effect and ±100 for the full control effect; nearly all actives have a fitted effect of over 50% in size; luciferase read-out
MARV entry inh – qHTS for inhibitors of binding or entry into cells for Marburg Virus; Marburg virus pseudotyped entry inhibition, cell reporter; control for the full effect not named in the record; about a third of the inactives were read at about 46 µM; Potency, µM (titrated, usually from 37.8 µM), without a hit: top-dose activity change, negative = inhibition, most hits filed as inhibitors; 1.8% of 300,000 active; active = well fitted inhibition curve with a large enough effect; inconclusive = small, poorly fitted or top-dose-only effect, or effect the other way; inactive = flat fitted curve, though single readings scatter; tested in HEK293 cells; about a fifth of its hits are not listed in these tables; note: % is set by controls: 0 for no effect and ±100 for the full control effect; luciferase read-out
RE007 growth inh – qHTS Assay for Inhibitors of the HIV-1 protein Vpr | S. pombe RE007 Vpr strain, BacTiter-Glo ATP luminescence, 24 h; control for the full effect not named in the record | 0.21% of 360,000 active | Potency, µM (highest dose often 92.2 µM), inactives show at the top dose activity change, negative = less growth; active = well fitted falling curve with a large enough effect; inconclusive = small, poorly fitted or top-dose-only effect; inactive = no such curve, though single readings can be large or run the other way;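 note: % is set by controls: 0 for no effect and ±100 for the full control effect; nearly all actives have a fitted effect of over 50% in size; the assay follows cell death caused by Vpr and the record does not say whether a fall means rescue or toxicity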
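Fission yeast RE007 carrying one integrated HIV-1 vpr copy, seeded at OD 0.01 in PMG+AL medium with 23 nL pinned compound. Grown 24 h at 30 degrees; viability read by BacTiter-Glo luminescence after 5 min.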
Active calls of the source: *; u = inconclusive; x = not tested or not shown; & = joins results of further samples; [ ] = dose if it differs, or a comment. Unless noted, calls come from the whole dose curve; as a rule, active means well fitted rising curve with a large enough effect; inconclusive means small, poorly fitted or top-dose-only effect; inactive means no such curve, though single readings can be large or run the other way. Potency is the fitted concentration of half-maximal effect.

Every second line gives: Cruzain noTriton	NS1 function inh	2A StopGo	Cruzain inh Det	SARS PLpro yeast	Lassa entry inh	MARV entry inh	RE007 growth inh
NC(=O)CC(NC(=O)Cc1ccc(Cl)cc1)c1ccc(NC2CC3CCC2C3)c([N+](=O)[O-])c1 (stereo not drawn)
  x	u	0%	x	-1%	x	x	15%
CCN1CCN(c2ccc(NC(=O)c3ccc4c(c3)[nH]c(=O)n4Cc3ccc(OC)cc3)cc2)CC1
  8%	5%	-10%	-8.0%	18%	u	7.9µM*	9%
Cc1cc(NC(=O)CCCC(=O)N(CC(=O)NC2CCCCC2)c2ccccc2)no1
  9%	u	30%[activator]	-1.9%	1%	9%	-1%	-16%
CC1CN(CC(=O)c2ccccc2Cl)CC(C)O1 (stereo not drawn)
  x	-36%	6%	x	0%	-11%[46.1 µM]	-1%[46.1 µM]	-4%
Cc1ccccc1Nc1ccc2nonc2c1[N+](=O)[O-]
  x	4%	0%	x	-3%	x	x	-3%
CCC(=O)Nc1ccc(C(=O)Cn2nc(C(=O)O)c3ccccc3c2=O)cc1
  -4%	2%	x	-4.0%	0%	x	4%	x
FC(F)(F)c1cnc(N2CCN(C(=S)NCc3ccccc3)CC2)c(Cl)c1
  x	2%	-17%	x	-2%	u	13µM*	6%
CCCC(=O)Nc1ccc2oc(-c3cncc(Br)c3)nc2c1
  x	6%	68%[activator]	x	0%	x	x	2%
CCOC(=O)c1nnc(-c2ccccc2)nc1NCc1ccc(Cl)cc1
  u	10%	-24%	-8.7%	-1%	5%	u	8%
Cc1cc(C(=O)Nc2ccc3c(c2)OCO3)no1
  x	3%	62%[activator]	x	1%	x	x	-16%
CN(C)c1ccc2c3c(ccc(N(C)C)c13)C(=O)OC2
  x	-2%	0%	x	3%	x	x	-1%
CCOC(=O)c1cnc(SCC(=O)Nc2cccc(OC)c2)nc1N
  -5%	-7%	-21%	-2.1%	-6%	u	5%	10%
O=[N+]([O-])c1ccc2nc(N3CCCC3)sc2c1
  x	1%	30%	x	1%	x	x	8%
Cc1cc(C)c(C(=O)NC2CC(C)(C)Cc3c2cnn3-c2cccc(F)c2)[nH]1 (stereo not drawn)
  x	6%	u	x	-7%	u	u	8%
CCC(C(=O)NC1CCCC1)N(Cc1ccco1)C(=O)CNS(=O)(=O)c1ccccc1 (stereo not drawn)
  x	-2%	19%	x	0%	2%	-9%	21%

Some of these compounds in order of length of the SMILES, smallest number first:
Every second line gives: Cruzain noTriton	NS1 function inh	2A StopGo	Cruzain inh Det	SARS PLpro yeast	Lassa entry inh	MARV entry inh	RE007 growth inh
CC1CN(CC(=O)c2ccccc2Cl)CC(C)O1 (stereo not drawn)
  x	-36%	6%	x	0%	-11%[46.1 µM]	-1%[46.1 µM]	-4%
Cc1cc(C(=O)Nc2ccc3c(c2)OCO3)no1
  x	3%	62%[activator]	x	1%	x	x	-16%
O=[N+]([O-])c1ccc2nc(N3CCCC3)sc2c1
  x	1%	30%	x	1%	x	x	8%
Cc1ccccc1Nc1ccc2nonc2c1[N+](=O)[O-]
  x	4%	0%	x	-3%	x	x	-3%
CCCC(=O)Nc1ccc2oc(-c3cncc(Br)c3)nc2c1
  x	6%	68%[activator]	x	0%	x	x	2%
CCOC(=O)c1cnc(SCC(=O)Nc2cccc(OC)c2)nc1N
  -5%	-7%	-21%	-2.1%	-6%	u	5%	10%
FC(F)(F)c1cnc(N2CCN(C(=S)NCc3ccccc3)CC2)c(Cl)c1
  x	2%	-17%	x	-2%	u	13µM*	6%
CCC(=O)Nc1ccc(C(=O)Cn2nc(C(=O)O)c3ccccc3c2=O)cc1
  -4%	2%	x	-4.0%	0%	x	4%	x
Cc1cc(C)c(C(=O)NC2CC(C)(C)Cc3c2cnn3-c2cccc(F)c2)[nH]1 (stereo not drawn)
  x	6%	u	x	-7%	u	u	8%
NC(=O)CC(NC(=O)Cc1ccc(Cl)cc1)c1ccc(NC2CC3CCC2C3)c([N+](=O)[O-])c1 (stereo not drawn)
  x	u	0%	x	-1%	x	x	15%

More results
Every second line gives: Cruzain noTriton	NS1 function inh	2A StopGo	Cruzain inh Det	SARS PLpro yeast	Lassa entry inh	MARV entry inh	RE007 growth inh
Cc1c(C(=O)N2CCCCCC2)c(S(=O)(=O)Nc2ccc(OC(F)(F)F)cc2)c(C)n1C
  u	x	-4%	-3.9%	x	-9%[46.1 µM]	x	x
COC(=O)c1ccccc1NC(=O)c1ccc2c(c1)CCN2S(C)(=O)=O
  -3%	x	-3%	0.5%	x	-20%[46.1 µM]	12%[46.1 µM]	x
COc1cccc2cc(-c3nc(-c4ccc(Cl)cc4)cs3)c(=O)oc12
  19%	x	-17%	4.6%	x	u	x	x
COc1nnc(OC)c2ccccc12
  9%	-2%	x	6.1%	1%	17%	25%	-13%
COc1cccc(Cn2c(=S)[nH]c3ccc(N4CCOCC4)cc3c2=O)c1
  6%	-27%	-10%	0.6%	1%	u	-10%	8%
O=C(C1CCC(=O)N1Cc1cccnc1)N1CCN(c2ccc(F)cc2)CC1 (stereo not drawn)
  -27%	-5%	-24%	2.2%	5%	x	x	-6%
CS(=O)(=O)N(CC(N)=O)c1cccc(Br)c1
  -11%	0%	-4%	1.5%	-4%	9%	1%	32%
CCN(CC)S(=O)(=O)c1cccc(-c2nnc(SCC(=O)c3cc(C)n(C)c3C)o2)c1
  u	-6%	u	7.9%	-1%	u	x	54%
CCC(=O)Nc1ccc(NC(=S)NC(=O)c2oc3ccccc3c2C)cc1
  -24%	-4%	-17%	-3.6%	9%	u	13%	-4%
CCCS(=O)(=O)NCCc1cc2c(OC)ccc(OC)c2[nH]c1=O
  8%	2%	-24%	0.9%	-3%	7%	23%	20%
CCOc1c(Cl)cc(CNc2ccc(S(N)(=O)=O)cc2)cc1OC
  3%	6%	u	-6.7%	u	u	0%	-2%
COc1cccc(OC)c1OCCCCN1CCCC1
  10%	-2%	-13%	0.7%	0%	4%	10%	7%
CC(=O)c1nnn(-c2ccc(C)cc2Cl)c1C
  5%	x	-3%	0.1%	x	u	x	x
C=CCn1c(=N)c(C(=O)NCCCOC)cc2c(=O)n3cc(C)ccc3nc21
  u	2%	u	u	-3%	4%	u	9%
Cc1cccc(C)c1-n1c(C)nn(CC2CC2)c1=O
  x	x	-10%	x	-1%	-1%	-8%[46.1 µM]	-12%

Later entries:
Every second line gives: Cruzain noTriton	NS1 function inh	2A StopGo	Cruzain inh Det	SARS PLpro yeast	Lassa entry inh	MARV entry inh	RE007 growth inh
Cc1ccccc1C(=O)NC1CC(C)(C)NC(C)(C)C1
  -3%	0%	-8%	3.4%	-4%	-2%	-12%	21%
O=C(CN1C(=O)c2ccccc2C1=O)NNC1=NS(=O)(=O)c2ccccc21
  -3%	7%	-7%	-0.3%	1%	-2%	u	5%
CC(=O)N(C)c1ccc(NC(=O)Cc2cccc3ccccc23)cc1
  x	x	25%	x	x	18%	-26%[46.1 µM]	8%
N#C/C(=C\c1ccc[nH]1)C(=O)Nc1ccccc1[N+](=O)[O-]
  x	3%	50%[activator]	x	-8%	x	x	-5%
Cc1oc(-c2ccc(Cl)cc2)nc1CN1CCC(C(=O)NCc2cccnc2)CC1
  1%	-1%	-17%	1.8%	-2%	0%	-29%	-27%
O=C(COc1cccc(-n2cnnn2)c1)NC1CCCCC1
  x	-4%	-10%	x	0%	1%[46.1 µM]	17%[46.1 µM]	7%
N#Cc1ccc(CSc2ccccn2)c(Cl)c1
  x	-5%	-3%	x	-7%	1%[46.1 µM]	14%[46.1 µM]	6%
c1ccc2c(-n3cccn3)cccc2c1
  5%	-9%	38%[activator]	-4.2%	2%	26%	1%	-19%
CNC(=O)c1c(NC(=O)CCS(=O)(=O)c2ccccc2)sc2c1CCN(C(=O)OC)C2
  x	x	7%	x	0%	3%[46.1 µM]	22%	-11%
CCOc1cccc(Nc2ccc([N+](=O)[O-])cn2)c1
  x	-39%	22%	x	-9%	-3%[46.1 µM]	-12%[46.1 µM]	u
COC(=O)c1cc(OC)c(OC)cc1NC(=O)C1CCC(=O)N1S(=O)(=O)c1ccc(C)cc1 (stereo not drawn)
  u	-3%	-22%	-5.9%	10%	-8%	18%	14%
Cc1ccccc1-n1nc2c(c1NC(=O)C1CCCC1)CS(=O)(=O)C2
  x	7%	-7%	x	6%	x	x	-11%
COc1ccccc1-c1nnc(NC(=O)CCS(=O)(=O)c2ccccc2)o1
  x	16%	-25%	x	-4%	7%	20%	-17%
COc1ccc(CC(=O)OCC(=O)Nc2c(C)n(C)n(-c3ccccc3)c2=O)cc1
  -2%	-1%	-11%	3.6%	5%	1%	12%&12%	2%
Cn1ccc(C(=O)Oc2ccc(C(=O)Nc3ccc(F)cc3F)cc2)n1
  x	x	51%[activator]	x	-3%	24%	0%	0%
COc1ccc(CN(C)C(=O)c2cccc(C(=O)N(C)Cc3ccc(OC)cc3)c2)cc1
  x	-11%	-24%	x	-1%	x	1%	14%
CCNC(=O)CN(c1ccc(Cl)cc1)S(=O)(=O)c1ccccc1
  8%	-11%	-22%	2.8%	-19%	u	1.2µM*	34%
CCn1c(SCC(=O)NC2CCCCC2)nnc1-c1cccnc1
  x	-4%	-20%	x	-3%	u	16%	-4%
